From PubChem BioAssay
Mtb betalactam: beta-lactam sensitization of Mtb H37Rv. inhibition, % at 25 µM. 0.27% of 330,000 active. M. tuberculosis H37Rv growth with meropenem, percent inhibition; hits of this screen are not shown here. AID 434955;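 active = about 74% or more and at least 40 points above the plate without the antibiotic, then above 30% in a dose series; inconclusive = first-round hits that could not be retested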;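 also: growth measured after seven days incubation then overnight dye step; 0% = bacteria only wells and 100% = bacteria with antibiotic; twin plates without the antibiotic show which effects depend on it; some results filed as inactive read as strong as hits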
YopH PTP inh: inhibitors of Yersinia enterocolitica YopH tyrosine phosphatase; fluorescence Ex485/Em525; 0.16% of 140,000 active; AID 898; inhibition, %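 (about 10 µM by stock and volumes)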;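 active = inhibition of 50% or more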;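 also: controls were vehicle for no effect and minimum signal wells for full effect; inactives centre near -20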
Arbovirus anti: arbovirus infection inhibition. inhibition, % at 10 µM. arbovirus infection cell-based antiviral screen. 0.37% of 200,000 active. AID 1251;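 active = inhibition from about 30%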;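 also: bluetongue infection of BSR cells; cell survival read as ATP light after 72 h; 0% = infected wells without compound and 100% = uninfected wells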
Mtb H37Rv: M. tuberculosis H37Rv growth inhibitors, H37Rv strain (AID 1626); M. tuberculosis H37Rv growth inhibition; higher % means a stronger effect; inhibition, % at 10 µM, or IC50 in µM where a hit was titrated; 0.95% of 220,000 active;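 active = confirmed in a dose series; inconclusive = inhibition above 80% but not taken into the dose series; inactive = below 80% or under 30% at every dose of the series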;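 also: bacteria incubated seven days before Alamar blue readout; 0% = bacteria only wells and 100% = bacteria with antibiotic wells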
RecA intein inh: inhibitors of M. tuberculosis RecA intein splicing. P9WHJ3. cell-free RecA intein splicing, fluorescence. inhibition, %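 (about 9 µM by stock and volumes)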. 0.75% of 290,000 active; in the data active = inhibition above about 30%; inconclusive = no clear call, values can overlap the other calls;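 also: 0% = vehicle wells and 100% = reference inhibitor control wells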
Target sequence (P9WHJ3 whole entry, looked up): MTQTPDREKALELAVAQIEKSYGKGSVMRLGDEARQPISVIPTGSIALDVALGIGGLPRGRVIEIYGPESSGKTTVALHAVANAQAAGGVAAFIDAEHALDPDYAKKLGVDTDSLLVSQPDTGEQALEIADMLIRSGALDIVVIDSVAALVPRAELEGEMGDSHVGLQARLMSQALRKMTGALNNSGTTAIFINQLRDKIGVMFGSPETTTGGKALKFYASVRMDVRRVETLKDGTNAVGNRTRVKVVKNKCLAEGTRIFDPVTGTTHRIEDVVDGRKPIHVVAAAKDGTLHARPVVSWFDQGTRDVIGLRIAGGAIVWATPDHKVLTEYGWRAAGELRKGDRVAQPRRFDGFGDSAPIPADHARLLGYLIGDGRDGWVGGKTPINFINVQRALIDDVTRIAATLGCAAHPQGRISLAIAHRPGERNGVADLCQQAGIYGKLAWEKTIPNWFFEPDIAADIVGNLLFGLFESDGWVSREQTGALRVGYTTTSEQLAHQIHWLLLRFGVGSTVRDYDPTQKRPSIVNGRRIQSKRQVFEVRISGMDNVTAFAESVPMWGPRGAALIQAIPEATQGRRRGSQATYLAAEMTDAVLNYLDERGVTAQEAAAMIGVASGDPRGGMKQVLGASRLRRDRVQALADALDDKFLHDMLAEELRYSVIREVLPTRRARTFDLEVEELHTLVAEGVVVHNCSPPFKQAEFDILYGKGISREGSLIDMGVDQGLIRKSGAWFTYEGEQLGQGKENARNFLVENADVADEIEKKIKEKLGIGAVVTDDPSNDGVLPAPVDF
Arbovirus anti repeat: further read-out of Arbovirus anti, marked with its call; inhibition, %; measured here: 10K subset replicate screen; many hits read low in the repeat;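 first of two repeat runs on a subset; 0% = infected and 100% = uninfected wells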
The depositor's hits bear a star; u = inconclusive; x = no result given. This is a subset. The share of hits here may be higher or lower than overall.

SMILES	Mtb betalactam	YopH PTP inh	Arbovirus anti	Mtb H37Rv	RecA intein inh	others
CCOc1cccc(C(=O)NNC(=O)CCC(=O)O)c1	-1	-6	-2	-5%	-1.3
CCC(=O)N1CCc2cc(Br)cc(S(=O)(=O)CCC(=O)N(CC)CC)c21	7	x	2	4%	1.4
N/C(=N\OC(=O)c1cccc(Cl)c1)c1cccnc1	8	4	1	-1%	2.8
CCC(=NCCO)c1c(O)n(-c2ccccc2)c(=O)[nH]c1=O	-3	-24	3	-2%	-0.8
COc1ccc(OC)c(CNCCNC(=O)c2ccco2)c1	x	-24	12	-5%	x
COc1ccc(C(=O)Nc2ccccc2N2CCN(C(=O)c3ccccc3)CC2)cc1Br	78	x	x	x	10.0
O=C(O)c1ccccc1SCC(=O)N1CCOCC1	7	x	9	7%	0.4
CCCSc1nc(O)c(C2OC(=O)c3c2ccc(OC)c3OC)c(=O)n1C (centres undefined)	u	-19	8	-7%	1.0
COc1ccc(C(CNC(=O)c2cc3ccccc3cc2OC)N2CCCC2)cc1 (centres undefined)	16	0	-5	x	1.5
Cn1cnc([N+](=O)[O-])c1C(=O)Nc1cccc([N+](=O)[O-])c1	-2	x	-3	12%	1.6
COC(=O)/C(C#N)=C/c1c(N2CCN(Cc3ccc4c(c3)OCO4)CC2)nc2c(C)cccn2c1=O	-4	x	x	1%	-2.7
O=C1C2CCCN2C(c2cccc(Br)c2)N1c1ccc(F)cc1 (centres undefined)	6	-14	3	-6%	1.2
CCOC(=O)N1CCN(c2c(-c3ccc(C(C)C)cc3)c(=O)c2=O)CC1	1	2	-1	-5%	1.7
CC(C)Cc1nc(N2CCC(C(N)=O)CC2)c2nnn(Cc3ccccc3)c2n1	1	-1	-9	-4%	3.0
CCOC(=O)c1sc2nc(NC(=O)COc3ccccc3)sc2c1C	1	-26	-1	1%	-2.1	Arbovirus anti repeat=-3

4 compounds already listed, arranged by heavy-atom count, lowest first.
SMILES	Mtb betalactam	YopH PTP inh	Arbovirus anti	Mtb H37Rv	RecA intein inh	others
O=C(O)c1ccccc1SCC(=O)N1CCOCC1	7	x	9	7%	0.4
O=C1C2CCCN2C(c2cccc(Br)c2)N1c1ccc(F)cc1 (centres undefined)	6	-14	3	-6%	1.2
CC(C)Cc1nc(N2CCC(C(N)=O)CC2)c2nnn(Cc3ccccc3)c2n1	1	-1	-9	-4%	3.0
COC(=O)/C(C#N)=C/c1c(N2CCN(Cc3ccc4c(c3)OCO4)CC2)nc2c(C)cccn2c1=O	-4	x	x	1%	-2.7

Looked up by compound from the entries so far, three records:
SMILES	Mtb betalactam	YopH PTP inh	Arbovirus anti	Mtb H37Rv	RecA intein inh	others
N/C(=N\OC(=O)c1cccc(Cl)c1)c1cccnc1	8	4	1	-1%	2.8
CCCSc1nc(O)c(C2OC(=O)c3c2ccc(OC)c3OC)c(=O)n1C (centres undefined)	u	-19	8	-7%	1.0
CCOc1cccc(C(=O)NNC(=O)CCC(=O)O)c1	-1	-6	-2	-5%	-1.3

Next section
SMILES	Mtb betalactam	YopH PTP inh	Arbovirus anti	Mtb H37Rv	RecA intein inh	others
COc1ccc(C(=O)Oc2cccc3cccnc23)cc1S(=O)(=O)N1CCOCC1	100	x	1	38%	-5.7
O=C(O)c1ccc(NC(=S)NC(=O)c2ccc3ccccc3c2)cc1	70	x	x	x	4.0
CCn1c(C)c(C(=O)Nc2ccc(OC)cc2)c2cc(OC)ccc21	3	x	x	x	-2.4
C=CCn1c(SCC(=O)NNC(=O)Nc2ccc(C)cc2)nnc1-c1ccccc1	-2	x	x	-2%	-4.0
CCC(=O)Nc1ccc(Cl)c(NC(=O)c2ccc([N+](=O)[O-])cc2)c1	3	-29	-17	13%	0.6
Cc1c(Br)c(C(F)(F)F)nn1CC(=O)N(C)C1CCCCC1	-3	x	x	x	-1.6
Cc1ccc(/C=N/Nc2nc3ccccc3[nH]2)s1	7	-22	19	47%	9.1
COc1ccc(NC(=O)C2CCCN(S(=O)(=O)c3ccc4c(c3)CCCN4C(C)=O)C2)cc1 (centres undefined)	-8	x	x	x	-1.5
Cc1cccc(NC(NC(=O)Cc2ccccc2)C(Cl)(Cl)Cl)c1 (centres undefined)	3	-33	14	8%	-0.2
Cc1ccccc1NC(=O)c1cc2c(=O)n3cccc(C)c3nc2s1	11	x	x	x	-32
CC(=O)Nn1cnc2c(c1=O)C1(CCCC1)Cc1ccccc1-2	-4	3	3	1%	x
O=c1nc2sc3ccccc3n2c(=O)n1-c1cccc(Cl)c1	-6	-10	3	-3%	-1.9
CCOC(=O)C1(CCCc2ccccc2)CCN(C(=O)C2=C(C)OCCO2)CC1	x	x	1	5%	3.7
CCOC(=O)c1c(N)sc2c1CCSC2	5	-15	-2	1%	-1.0
CCC(=O)c1ccc(OC(=O)c2ccc(Br)o2)cc1	-2	5	x	0%	x
O=C1N(Cc2cccnc2)C[C@@H]2C[C@@H](c3ccc4nonc4c3)N3CCC[C@@]123	4	x	6	4%	1.6
COc1ccc(/C=N/NC(=O)Nc2nonc2N)cc1	-10	-5	-7	-4%	0.0
O=C(c1cc(S(=O)(=O)N2CCOCC2)ccc1Cl)N1CCc2ccccc2C1	-1	x	x	x	0.2
COc1ccc(NC(=S)NC(NC(=O)c2ccc(Cl)cc2Cl)C(Cl)(Cl)Cl)c([N+](=O)[O-])c1 (centres undefined)	16	-1	-17	-5%	5.3
CC(=O)Nc1ccc(S(=O)(=O)Nc2ccc(S(=O)(=O)Nc3nc(C)cc(C)n3)cc2)cc1	-8	x	x	x	0.5
Fc1ccc(/C=N/N2CCN(Cc3ccccc3)CC2)cc1	-2	x	x	x	-2.4
CN1CCN(C(=O)CN2C(=O)CC(C)(C)S(=O)(=O)c3ccccc32)CC1	3	3	6	-9%	-3.1
CC(=O)Nc1ccc(C(=O)n2cnc3cc(C)c(C)cc32)cc1	-9	-7	5	2%	21
CCC(=O)Nc1ccc(NC(=O)c2oc3ccccc3c2C)cc1	-10	x	x	x	-0.3
CC1(C)Cc2c(cnn2-c2cccc(F)c2)C(NC(=O)c2ccc(=O)[nH]n2)C1 (centres undefined)	5	x	x	x	-0.4
COc1ccc(C(C(=O)NC2CCCC2)N(C(=O)c2snc(C(N)=O)c2N)C2CCCC2)cc1OC (centres undefined)	-2	x	x	x	1.9
CCC(CC)C(=O)Nc1cccc(S(=O)(=O)c2cccc(NC(=O)C(CC)CC)c2)c1	7	-23	1	1%	2.1
CCOC(=O)NC(c1cccc(Cl)c1)C1CCCCCC1=O (centres undefined)	-6	3	10	-5%	-0.7
COc1ccc(NC(=O)c2ccc(=O)oc2)cc1	0	-41	6	x	0.0
C=CCN1C(=O)c2ccc(C(=O)N(C)CC(=O)Nc3c(C)cccc3C)cc2C1=O	0	x	x	x	0.7

A stretch from the list above, as a working copy:
SMILES	Mtb betalactam	YopH PTP inh	Arbovirus anti	Mtb H37Rv	RecA intein inh	others
O=C1N(Cc2cccnc2)C[C@@H]2C[C@@H](c3ccc4nonc4c3)N3CCC[C@@]123	4	x	6	4%	1.6
COc1ccc(/C=N/NC(=O)Nc2nonc2N)cc1	-10	-5	-7	-4%	0.0
O=C(c1cc(S(=O)(=O)N2CCOCC2)ccc1Cl)N1CCc2ccccc2C1	-1	x	x	x	0.2
COc1ccc(NC(=S)NC(NC(=O)c2ccc(Cl)cc2Cl)C(Cl)(Cl)Cl)c([N+](=O)[O-])c1 (centres undefined)	16	-1	-17	-5%	5.3
CC(=O)Nc1ccc(S(=O)(=O)Nc2ccc(S(=O)(=O)Nc3nc(C)cc(C)n3)cc2)cc1	-8	x	x	x	0.5
Fc1ccc(/C=N/N2CCN(Cc3ccccc3)CC2)cc1	-2	x	x	x	-2.4

Carrying on.
SMILES	Mtb betalactam	YopH PTP inh	Arbovirus anti	Mtb H37Rv	RecA intein inh	others
CC1(c2ccccc2)CC(C)(C)N(C(=O)c2cc([N+](=O)[O-])cc([N+](=O)[O-])c2)c2ccccc21 (centres undefined)	8	-30	-9	13µM*	4.7
COc1ccccc1-c1nc(SCC(=O)Nc2ccccc2)n[nH]1	1	x	x	x	-1.7
O=C(Nc1nnc(-c2ccccc2Cl)s1)C1CCN(S(=O)(=O)c2ccc(Cl)cc2)CC1	-4	-5	-10	5%	0.7
CC(O)(CS(=O)(=O)c1ccc(Br)cc1)c1ccccc1 (centres undefined)	6	x	x	x	-4.2
CN(CC(=O)Nc1ccc(F)c(F)c1F)C(=O)c1ccc2c(c1)OCCO2	-2	x	x	x	-1.4
Cc1ccc(NC(=S)N2CCC(NC(=O)c3ccc(F)cc3)CC2)cc1	8	x	x	x	-1.6
CC(=O)N1CCN(S(=O)(=O)c2ccc(Cl)cc2F)CC1	-2	x	9	1%	-0.8
O=C1NC(=O)C(=Cc2cc3c(cc2[N+](=O)[O-])OCO3)C(=O)N1	1	x	-8	-11%	39*
Cn1c(=O)c(=O)n(C)c2cc(S(=O)(=O)N3CCN(Cc4ccccc4)CC3)ccc21	15	-1	-2	x	-0.9
O=C(Cc1ccccc1)NC1CCN(Cc2ccccc2)CC1	-5	x	5	7%	-0.4
CC1(C)NC(=O)NC2(C)NC(=O)NC(C)(C)C12 (centres undefined)	-14	-22	-2	0%	x
Cc1ccc(SCC(=O)OC(C)C(=O)NCc2ccccc2)cc1 (centres undefined)	0	x	x	x	2.1
CCN(CC)S(=O)(=O)c1ccc(C(=O)Nc2nnc(CSC)o2)cc1	9	x	0	-6%	x
O=C(Nc1ccccc1)C(c1ccccc1)C1CCCC1 (centres undefined)	x	-26	16	5%	8.1
CCN(CC)CCCC(C)Nc1c2ccc(Cl)cc2nc2ccc(OC)cc12 (centres undefined)	x	x	-22	8%	x
COc1cccc(NC(=O)CCNS(=O)(=O)c2ccc3c(c2)oc(=O)n3C)c1	5	x	x	x	-2.0
O=C1CN(C(=O)CNC(=O)c2cccc(Cl)c2)c2ccccc2N1	-2	x	3	1%	-0.6
N#Cc1ccccc1OCC(=O)N(Cc1nnc(-c2ccccc2Cl)o1)C1CC1	-4	x	x	x	-1.8
CCc1ccccc1NC(=S)N(CCN1CCOCC1)Cc1ccccc1F	9	x	1	1%	-1.2
Cc1noc(C)c1CSCC(=O)Nc1nc2ccccc2s1	-12	x	x	x	-1.0
COc1ccc(C)cc1NS(=O)(=O)c1ccc(Br)s1	8	-27	-22	0%	5.4
Cc1ccc2c(c1)nnn2C1CCN(C(=O)NCc2ccccc2)CC1	-6	x	1	6%	0.6
Cc1ccc(C(=O)O/N=C(\N)c2ccccn2)cc1Cl	3	x	x	x	2.3
COc1ccc(CNC(=O)CN2C(=O)C(c3ccccc3)Oc3cccnc32)cc1 (centres undefined)	-4	x	x	x	-2.1
CC(Sc1ccccc1)C(=O)NN=C1CCCC1 (centres undefined)	11	x	-1	-1%	-0.1
CCOC(=O)CCC(=O)NNC(=O)COc1ccc(C(C)C)cc1Br	1	x	0	2%	-0.7
CCCCOc1ccc(S(=O)(=O)n2c(C)nc3ccccc32)cc1	9	1	2	5%	11
Cc1cc2c(C)c(C)c(=O)[nH]c2cc1N	2	-7	-12	6%	-2.5
COC(C[C@H](O)CC(=O)COCc1ccccc1)OC	x	x	x	-5%	2.7
O=C1C2C3c4ccccc4C(c4ccccc43)C2C(=O)N1c1nc(-c2ccccc2)cs1 (centres undefined)	-2	-31	-6	7%	-0.4
Cc1ccc(-c2ncns2)cc1	-5	x	x	-7%	-2.5
O=C(CSc1nnc(Cc2ccccc2)o1)c1ccccc1	4	x	-4	0%	4.7
